Rango complex inh = prevents formation of the Rango-importin beta complex. Rango CFP/YFP FRET sensor + importin beta, 45 min. 0.031% of 340,000 active. Potency, µM (doses to about 92.2 µM), inactives show at the highest dose inhibition of complex formation. Q14974. AID 540263; active = rising FRET ratio curve, often small or poorly fitted; inconclusive = mostly compound fluorescence or quenching in the first reads; inactive = flat curves in all reads;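 also: potency is read from the fitted curve at half-maximal effect; 0% = DMSO wells and 100% = buffer wells lacking importin beta; nearly all actives have a fitted effect of over 15% in size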
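FRET biosensor (snurportin 1 IBB flanked by EYFP and cerulean), 50 nM, with compound 5 min, then 0.125 microM importin beta in PBS, 1 mM DTT, 0.02% Tween-20, 0.1% BSA. CFP/YFP ratio read after 45 min at room temperature; pre-read flags interference.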
Rango dissoc inh = inhibition of RanGTP-driven Rango-importin beta dissociation; O95149+P62826; Potency, µM (series often up to 46.1 µM), for inactives: at the top dose activity change, negative = inhibition; 0.071% of 340,000 active; Biochemical FRET Rango-importin beta, RanGTP-induced dissociation; active means falling FRET ratio curve, often poorly fitted, with flat reads before Ran was added; inconclusive means other falling curves, or compound fluorescence or quenching; inactive means flat or rising ratio curve;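 also: potency is read from the fitted curve at half-maximal effect; % of control where 0% means no effect; nearly all actives have a fitted effect of over 45% in size; -100% = wells without RanGTP and RCC1; the record marks most hits as doubtful in a second field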
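Compounds preincubate 5 min with complex of recombinant Rango and importin beta in PBS with 1 mM DTT. Ran (0.6 uM) loaded with 2 mM GTP plus 0.2 uM RCC1 starts dissociation; FRET is recorded 45 min later.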
GLA inh pH 4.5 = alpha-galactosidase A (human) inhibition, pH 4.5 | activity change, negative = inhibition, % at 105 µM | purified enzyme, 4-MU-alpha-Gal fluorescence, pH 4.5 | 230,000 tested, under 10 active; inconclusive = small, poorly fitted or top-dose-only inhibition, or a rising curve; inactive = flat fitted curve, though single readings scatter; no compound was filed as active;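 also: 0% = full activity with enzyme and -100% = basal without enzyme; dose as in the result columns while the protocol names 77 µM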
Target sequence (P06280 whole entry, looked up): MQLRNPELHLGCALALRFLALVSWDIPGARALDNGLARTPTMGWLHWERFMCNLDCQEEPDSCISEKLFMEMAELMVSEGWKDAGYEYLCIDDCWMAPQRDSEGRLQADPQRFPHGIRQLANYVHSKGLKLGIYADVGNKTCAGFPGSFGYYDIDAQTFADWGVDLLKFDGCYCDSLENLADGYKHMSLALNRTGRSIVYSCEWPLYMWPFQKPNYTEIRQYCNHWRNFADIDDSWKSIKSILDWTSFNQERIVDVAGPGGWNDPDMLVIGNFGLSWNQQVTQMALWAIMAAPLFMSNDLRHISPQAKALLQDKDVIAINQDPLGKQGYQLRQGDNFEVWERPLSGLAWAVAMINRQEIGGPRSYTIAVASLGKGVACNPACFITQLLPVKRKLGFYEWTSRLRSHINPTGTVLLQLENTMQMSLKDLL
miR-21 FLuc = miR-21 reporter, rising signal. HeLa miR-21 FLuc reporter, luciferase, 48 h. Potency, µM (doses to about 38.3 µM), for inactives: at the top dose reporter change, positive = more light. 340,000 tested, under 10 active; active = well fitted rising curve with a large enough effect; inconclusive = small, poorly fitted or top-dose-only effect; inactive = no such curve, though single readings can be large or run the other way;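 also: % of control where 0% means no effect; miR-21 action dims this reporter so a rising signal means less miR-21 action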
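Compounds were titrated across several concentrations (up to approximately 40 uM) and incubated 48 hours with HeLa miR-21-FLuc reporter cells (miR-21 target sequence downstream of FLuc, endogenous miR-21). Readout was firefly luciferase luminescence after lytic detection reagent.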
The depositor's hits bear a star; u = inconclusive; x = not tested or not shown.

SMILES | Rango complex inh | Rango dissoc inh | GLA inh pH 4.5 | miR-21 FLuc
O=C(/C=C\Nc1ccc(Cl)cn1)c1ccc(Br)cc1 | u | -11.5% | 0.8 | -25.2%
CCOc1ccc(-n2c(C)nc3cc(C(=O)NCC4CCCO4)ccc32)cc1 (configuration not stated) | -2.2% | 20.2% | x | -1.0%
COc1cccc(C(C(=O)NC(C)(C)C)N(CCc2ccccc2)C(=O)CCC(=O)Nc2cc(C)on2)c1OC (configuration not stated) | 2.1% | -15.7% | x | 9.8%
CC1CCC(NC(=O)c2cc3c(=O)n(C)c4ccccc4c3n2C)CC1 (configuration not stated) | 2.1% | -12.3% | -0.6 | -26.4%
CCOC(=O)C1=C(COC(=O)COc2cc(C)ccc2C)NC(=O)NC1C (configuration not stated) | -2.0% | 0.2% | x | x
COCCCNC(=O)CC(NS(=O)(=O)c1ccc(C)cc1)c1ccco1 (configuration not stated) | 2.5% | 4.0% | 3.8 | -2.5%
COc1ccc(C[C@H](N)C(=O)N[C@H]2[C@@H](O)[C@H](n3cnc4c(N(C)C)ncnc43)O[C@@H]2CO)cc1 | -0.9% | 1.9% | x | x
CC(C)CSc1nc(N2CCOCC2)c2c(c1C#N)CC(C)(C)SC2 | 2.6% | -14.8% | -9.7 | -10.7%
COc1cc(NC(=S)N(C)C)c(OC)cc1Cl | 0.9% | 9.4% | 3.3 | 5.8%
COc1ccc2nc(NC(=O)C3CCN(C(=O)c4ccc(F)cc4)CC3)sc2c1 | 1.5% | -2.0% | x | 5.1%
CCc1ccc(N2CC(C(=O)NC3CCCCC3C)CC2=O)cc1 (configuration not stated) | -3.4% | 0.9% | x | -2.3%
CCOc1ccc(N2C(=O)C(Cl)=C(Nc3ccccc3O)C2=O)cc1 | 2.0% | 0.9% | -2.3 | -21.8%
CCn1c(SCC(=O)NC(C)C)nnc1-c1cccs1 | -1.0% | -4.9% | 0.4 | -2.7%
NC(=O)C1(S(=O)(=O)c2ccccc2)CCCCC1 | -3.0% | 17.5% | -3.6 | -3.7%
Cc1cccc(C(C)C)c1NC(=O)COC(=O)CNS(=O)(=O)c1ccccc1 | 2.3% | 0.1% | x | x
Cc1cc(OCc2cc(C(=O)N(C)CCOc3ccccc3)no2)cc(C)c1Cl | 0.6% | 11.2% | x | -0.6%
Cc1ccc(-n2cc(CN3CCN(Cc4nccn4C)CC3)c(-c3cccc(C)c3)n2)cc1 | -0.2% | 16.6% | -10.3 | -0.1%
Cc1cc(C)cc(NC(=S)NCc2ccc(F)cc2)c1 | -0.9% | -5.1% | -14.8 | -2.0%
CCN(CC(=O)NC(=O)NCc1ccccc1)Cc1nc2ccccc2c(=O)[nH]1 | 1.8% | 0.9% | -8.1 | -18.7%
COc1ccccc1/C=C/C=N/n1c(-c2ccc(F)cc2)n[nH]c1=S | -1.2% | 8.9% | -11.0 | 13.1%
Cc1ccc(SCC(=O)OCC(=O)NCCNC(=O)COC(=O)CSc2ccc(C)c(C)c2)cc1C | 1.0% | -12.4% | x | x
CCN(C(=O)Cn1cnc2ccccc2c1=O)C1CCS(=O)(=O)C1 (configuration not stated) | 2.9% | -0.1% | x | x
CCN(CC)C(=O)c1[nH]cnc1C(=O)Nc1ccon1 | 6.1% | -13.7% | x | x
COc1ccc(CN2CCN(Cc3ccccc3F)CC2)cc1OC | 0.0% | -5.4% | x | 9.7%
COc1ccc(Nc2nnc(C)c3ccccc23)cc1C(N)=O | 0.1% | -0.1% | -8.0 | -38.6%
COc1cc(/C=C2\C(=O)NN(c3ccccc3)C2=O)cc([N+](=O)[O-])c1O | 1.6% | 1.6% | -7.1 | -1.8%
Cc1nn(-c2cc(Cl)ccc2Cl)c(C)c1C(=O)O | 0.1% | -4.5% | -10.2 | -6.0%
CCN(c1ccccc1)S(=O)(=O)c1ccc(OC)c(N=N/C(C(=O)Nc2ccccc2)=C(/C)O)c1 | 4.1% | -4.6% | 0.8 | 8.2%
COc1ccc(Cl)cc1NC(=O)CN(C)C(=O)c1n[nH]c2ccccc12 | 1.5% | 15.3% | x | x
COC(=O)C1=C(CCc2ccccc2)NC(=O)NC1c1ccc([N+](=O)[O-])cc1 (configuration not stated) | -0.4% | -2.7% | x | x
Brc1cccc(-c2nc3cccnc3nc2-c2cccc(Br)c2)c1 | 6.5% | -3.1% | x | -0.3%
Cc1ccc(N2CCN(c3ccc(NCc4nc5ccccc5n4C)cc3)CC2)cc1 | 1.1% | 5.3% | -5.6 | -29.6%
CCCCc1nnc(NC(=O)c2oc3ccc(OC)cc3c2C)s1 | -3.4% | 34.5% | x | x
CC(=O)N/C(=C/c1cccnc1)C(=O)Nc1ccc(Cl)cc1 | 3.1% | 9.0% | x | x
CN(CC(=O)Nc1cccc(F)c1)C(=O)CCSc1ccc(F)cc1 | 0.1% | -11.4% | x | x
CCc1ccc2nc3n[nH]c(N)c3cc2c1 | 4.2% | -1.3% | 7.0 | -91.4%
O=C(c1cncc(Br)c1)N1CCN(S(=O)(=O)c2ccccc2C(F)(F)F)CC1 | -2.0% | 2.9% | x | 4.0%
CC1(C)CC(=O)c2c(oc3ccc(NS(=O)(=O)c4cccc5cccnc45)cc23)C1 | -1.2% | 2.0% | -5.7 | 10.9%
N#Cc1c(N)oc(-c2ccco2)c1-c1ccco1 | u | -20.8% | 3.4 | 0.9%
COc1ccccc1OCc1ccc(C(=O)NCc2cccnc2)o1 | -0.9% | -21.2% | -1.4 | -7.2%
O=C(CCC(=O)N1CCN(c2ccccn2)CC1)Nc1nnc(C2CCCCC2)s1 | -2.7% | 3.0% | -1.8 | -3.4%
Cc1[nH]nc(SCC(=O)N2CCCCCC2)c1[N+](=O)[O-] | 0.3% | 7.6% | 0.6 | -38.0%
CC1CCCN(C(=O)CN2C(=O)CSc3ccc(S(=O)(=O)N4CCOCC4)cc32)C1 (configuration not stated) | 0.5% | 0.6% | x | -1.5%
CCCS(=O)(=O)c1nc(S(=O)(=O)c2ccc(C)cc2)c(NCc2ccccn2)s1 | 0.2% | -23.6% | -4.4 | -0.7%
O=c1cc(-c2ccccc2)nc(Sc2ccc([N+](=O)[O-])cc2[N+](=O)[O-])[nH]1 | -2.4% | 22.4% | x | x
CN(Cc1c(F)cccc1Cl)c1nnnn1-c1ccccc1 | -2.0% | 8.8% | -5.6 | -7.9%
Cc1nc(SCc2ccccc2F)c2oc3ccccc3c2n1 | 2.6% | -5.0% | -3.1 | 2.1%
Cn1c(C(=O)NCCN2CCc3ccccc3C2)cc2c(=O)[nH]c3ccccc3c21 | 1.2% | -11.1% | 1.9 | 3.3%
CCn1c(=O)cc(C(=O)OC)sc1=Nc1ccc(F)c(F)c1 | -1.7% | -11.1% | -5.7 | 10.2%
CCC1=C(c2ccc(C)cc2)S(=O)(=O)N=C1N1CCC(C(=O)NCCCN2CCCCC2)CC1 | -0.3% | 1.3% | x | -4.4%
New compounds follow
SMILES | Rango complex inh | Rango dissoc inh | GLA inh pH 4.5 | miR-21 FLuc
CCN(CC)CCNC(=O)Cn1c(=O)c2cccn2c2ccc(F)cc21 | -1.5% | -7.1% | x | -3.7%
COc1ccccc1Nc1nc(N)nc(CSC(=S)N2CCCCC2C)n1 (configuration not stated) | -2.6% | 23.7% | 10.4 | -40.4%
Cc1c(C(=O)Nc2ccccn2)oc2c(Cl)cccc12 | -0.2% | 6.2% | x | x
COc1ccc(-c2nc(CN3CCN(C(=O)c4ccco4)CC3)c(C)o2)c(OC)c1C | 5.5% | 0.5% | x | -0.1%
CCOC(=O)c1ccc(-n2c(C)nc3ccc(Br)cc3c2=O)cc1 | -0.5% | 0.0% | -1.0 | -5.4%
CCc1cc(=O)oc2cc(OS(C)(=O)=O)ccc12 | 0.4% | -20.7% | x | x
CC1(C)CN2C(=S)N(c3ccccc3)C(c3ccccc3)N2C1 (configuration not stated) | -4.5% | -2.4% | 7.3 | -5.6%
COc1ccc2cc(C(=O)Nc3ccc(F)cc3)sc(=O)c2c1OC | -1.5% | -8.3% | 6.9 | -7.7%
CCN(CC)C(=O)Cn1cc(C(=O)C(=O)Nc2ccc3c(c2)OCCO3)c2ccccc21 | 0.4% | 3.9% | x | -11.4%
Cc1cccc(N2CCN(S(=O)(=O)c3ccc4c(c3)CCC(=O)N4)CC2C)c1 (configuration not stated) | -0.6% | 6.2% | 8.0 | -5.2%
COCCCNc1nc2nonc2nc1N1CCN2CCCC2C1 (configuration not stated) | 3.1% | -0.6% | -0.9 | 3.8%
CCN(Cc1nc(-c2ccc(OC)c(OC)c2)no1)C(=O)c1ccc2c(c1)OCO2 | 2.6% | 2.3% | x | -14.7%
Cc1ccc(S(=O)(=O)N2CCN(c3ccccc3)CC2)c(C)c1 | -0.1% | 22.3% | x | 0.2%
CCc1nc(N)c(C#N)c(-c2ccco2)c1C | 3.3% | 1.5% | 2.7 | -11.2%
COc1ccc(CCn2c(C)nc3c(c(=O)c4ccccc4n3C)c2=O)cc1 | 3.2% | 2.4% | 0.0 | 6.9%
Cn1c(C(=O)NCCN2CCOCC2)cc2c(=O)n(C)c3ccccc3c21 | 4.9% | 10.8% | -3.3 | -2.3%
CCOC(=O)c1c(NC(=S)N2CCOCC2)sc(C)c1C | 6.7% | 5.2% | 0.7 | -18.1%
COC(=O)c1ccsc1-n1cc(C#N)c(=O)n(C)c1=O | -0.5% | -9.7% | -2.7 | 0.8%
COc1ccc(Br)cc1[C@H]1[C@H]2C=CC[C@@H](C)[C@@H]2C(=O)N1Cc1ccccc1 | 0.1% | 3.6% | -3.5 | 12.0%
NC(=O)c1ccc(N=C2C(=O)Nc3ccc([N+](=O)[O-])cc32)cc1 | 2.3% | 10.9% | -4.9 | -6.1%
CCOC(=O)Cc1nn[nH]n1 | -5.0% | -11.3% | 4.4 | 0.2%
COc1ccc(-c2coc3cc(O)cc(O)c3c2=O)cc1OC | 1.7% | 0.5% | 0.7 | -86.1%
Cc1ccn2c(NC(=O)C(C)(C)Oc3ccc(Cl)cc3)c(-c3cccs3)nc2c1 | 0.8% | -4.2% | -11.4 | 6.4%
O=C(NC1CCCCC1)C1CCN(S(=O)(=O)c2cccs2)CC1 | 3.0% | 0.9% | -0.1 | -8.9%
O=C(Cc1cccc2ccccc12)NCC1CCCO1 (configuration not stated) | -0.2% | 11.5% | -0.2 | -9.0%

Filtered by structure: the entries above with an NH in an aromatic ring
SMILES | Rango complex inh | Rango dissoc inh | GLA inh pH 4.5 | miR-21 FLuc
CCN(CC(=O)NC(=O)NCc1ccccc1)Cc1nc2ccccc2c(=O)[nH]1 | 1.8% | 0.9% | -8.1 | -18.7%
COc1ccccc1/C=C/C=N/n1c(-c2ccc(F)cc2)n[nH]c1=S | -1.2% | 8.9% | -11.0 | 13.1%
CCN(CC)C(=O)c1[nH]cnc1C(=O)Nc1ccon1 | 6.1% | -13.7% | x | x
COc1ccc(Cl)cc1NC(=O)CN(C)C(=O)c1n[nH]c2ccccc12 | 1.5% | 15.3% | x | x
CCc1ccc2nc3n[nH]c(N)c3cc2c1 | 4.2% | -1.3% | 7.0 | -91.4%
Cc1[nH]nc(SCC(=O)N2CCCCCC2)c1[N+](=O)[O-] | 0.3% | 7.6% | 0.6 | -38.0%
O=c1cc(-c2ccccc2)nc(Sc2ccc([N+](=O)[O-])cc2[N+](=O)[O-])[nH]1 | -2.4% | 22.4% | x | x
Cn1c(C(=O)NCCN2CCc3ccccc3C2)cc2c(=O)[nH]c3ccccc3c21 | 1.2% | -11.1% | 1.9 | 3.3%
CCOC(=O)Cc1nn[nH]n1 | -5.0% | -11.3% | 4.4 | 0.2%

Only part of the results is shown; the hit share may differ from the screen's.
